rRNA inh HTS = inhibits bacterial ribosomal RNA function over humanized ribosomes; E. coli WT GFP vs humanized-ribosome RFP mutants, fluorescence, 24 h; hits give low values; DMSO median 0, no signal -100; GFP signal change (wild-type ribosome), % (concentration not given with the values); 350,000 compounds, 1.6% hits; AID 720706;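 active = significant combined selectivity score with lowered wild-type GFP, culture density cut under 30%, mutant RFP and density less affected; inactive = any of these conditions unmet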; also: one replicate is shown; some compounds called inactive have numbers as strong as hits
FGF22 binding = binders of recombinant human FGF22 by thermal shift; Q9HCT0; SYPRO orange fluorescence; percent of sucrose octasulfate shift, DMSO zero; 340,000 compounds, 1.5% hits; AID 651658; calls only at 9.99 µM;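 active = melting point raised past a set limit in the mean and every replicate; inconclusive = no clear call; three in four hits are not shown here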
HNF4A DNA FP = change in binding of human HNF4 alpha to DNA. activity change, % at 10 µM. P41235. HNF4a-FITC DNA binding, fluorescence polarization, 1 h. 360,000 compounds, 0.3% hits; in the data active = activity change above about 30%, passing the limit was not always enough;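 also: controls were the assay level and a saturating level of protein; the project sought stronger binding though the title names inhibitors; some compounds called inactive have numbers as strong as hits; positive values seem to mean higher polarization but the record does not say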
Beta2AR agonist = agonists of human beta-2 adrenergic receptor inducing internalization | P07550 | Am2.2-beta2AR cells, FAP receptor internalization, flow cytometry; reference of the scale not given here | response, % (concentration not given with the values) | 340,000 compounds, 0.43% hits | AID 504454;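 active = response above a set limit, near 3 SD of response in nonfluorescent compounds, cut at about 42% in these data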;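 also: stock transfer was 100 nL into about 11 µL; a reference agonist was the positive control; negative values mostly stem from fluorescent compounds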
Target sequence (P07550 whole entry, looked up): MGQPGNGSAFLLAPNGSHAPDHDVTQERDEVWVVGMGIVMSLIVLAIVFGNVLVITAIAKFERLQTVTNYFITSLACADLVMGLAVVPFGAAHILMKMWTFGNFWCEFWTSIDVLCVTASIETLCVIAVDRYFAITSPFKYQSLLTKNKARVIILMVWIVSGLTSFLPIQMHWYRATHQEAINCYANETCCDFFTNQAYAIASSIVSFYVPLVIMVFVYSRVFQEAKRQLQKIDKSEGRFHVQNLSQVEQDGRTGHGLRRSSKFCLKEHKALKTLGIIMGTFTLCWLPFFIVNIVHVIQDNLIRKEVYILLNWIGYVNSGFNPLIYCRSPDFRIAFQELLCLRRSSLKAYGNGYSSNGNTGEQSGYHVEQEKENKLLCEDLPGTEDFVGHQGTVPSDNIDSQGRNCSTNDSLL
UCH37 DUB inh = human UCH37 deubiquitinating enzyme inhibition | Q9Y5K5 | inhibition, % (concentration not given with the values) | AID 588478 | 330,000 compounds, 0.33% hits | purified proteasome/UCH37, Ub-AMC cleavage fluorescence;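 active = mean of two replicates above 20%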;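 also: 0% = compound-free wells with enzyme and 100% = wells lacking proteasome; stock transfer was 100 nL into about 20 µL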
Target sequence (Q9Y5K5 whole entry, looked up): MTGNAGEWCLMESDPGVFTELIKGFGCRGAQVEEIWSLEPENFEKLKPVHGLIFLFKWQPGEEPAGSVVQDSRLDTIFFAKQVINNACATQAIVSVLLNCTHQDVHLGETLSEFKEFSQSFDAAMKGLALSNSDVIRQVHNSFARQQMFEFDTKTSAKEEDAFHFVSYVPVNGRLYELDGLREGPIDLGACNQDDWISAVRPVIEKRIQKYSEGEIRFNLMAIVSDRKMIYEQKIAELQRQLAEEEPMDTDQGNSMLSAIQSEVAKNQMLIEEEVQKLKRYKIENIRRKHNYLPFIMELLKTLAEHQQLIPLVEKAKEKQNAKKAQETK
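Material: Human UCH37 enzyme supplied as purified proteasome complex | Schedule: 30 min preincubation with enzyme, 25 min cleavage at room temperature | Detection: AMC fluorescence 355/460 nm | Measure: % inhibition of Ub-AMC cleavage fluorescence | Controls: Wells without proteasome as full block, compound-free enzyme plus substrate as uninhibited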
ALR H2O2 inh = inhibitors of human sulfhydryl oxidase ALR; P55789; inhibition, % (test concentration not listed); 290,000 compounds, 3.8% hits; purified ALR, DTT oxidation, H2O2 HRP-luminol luminescence;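 active = mean and each replicate at 75% or more; inconclusive = only one of the two met; inactive = neither met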;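 also: stock transfer was 7.5 nL into about 7.5 µL; 0% = neutral wells and 100% = wells with inactivated enzyme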
Target sequence (P55789 whole entry, looked up): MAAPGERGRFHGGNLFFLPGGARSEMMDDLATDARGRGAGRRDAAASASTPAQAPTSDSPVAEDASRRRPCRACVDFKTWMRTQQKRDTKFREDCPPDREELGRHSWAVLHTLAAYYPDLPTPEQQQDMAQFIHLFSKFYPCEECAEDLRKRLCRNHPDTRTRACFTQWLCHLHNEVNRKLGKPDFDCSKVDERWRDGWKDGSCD
E coli growth = E. coli growth inhibition | AID 1053175 | 330,000 compounds, 0.21% hits | Escherichia coli growth, OD600, 23 h; hits give low values | OD600 absorbance (no concentration beside the values);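 active = OD600 absorbance below the run mean of sample wells minus 3.6 SD, in any replicate, cut at about 0.56 in these data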;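 also: stock transfer was 300 nL into about 60 µL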
rRNA inh HTS OD600 = second read-out of rRNA inh HTS, no call of its own (marks repeat the call); OD600 change, %; measured here: OD600 growth;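 optical density of the mix in the first replicate; 0 = DMSO median and -100 = no signal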
rRNA inh HTS RFP = recorded beside rRNA inh HTS, whose call it bears; RFP signal change, %; measured here: RFP humanized mutant strains;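 first replicate; 0 = DMSO median and -100 = no signal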
* hit, by the source's call; i = inactive; ? = inconclusive; / = no result given. Not all compounds are listed; the hit share may differ from the screen's.

SMILES	rRNA inh HTS	rRNA inh HTS OD600	rRNA inh HTS RFP	FGF22 binding	HNF4A DNA FP	Beta2AR agonist	UCH37 DUB inh	ALR H2O2 inh	E coli growth
Cc1ccc(OCCNC(=O)CCc2nc3sc4c(c3c(=O)[nH]2)CCCC4)cc1	0	-4	-1.5	i	8.1	2	-10	/	0.67
CC(C)(C)C(=O)CN1C(=O)NC2(CCCc3ccccc32)C1=O (stereo unspecified)	2	5	1.1	i	-0.1	3	6.1	13	0.68
COc1ccc(NC(=O)CN2CCN(c3ccccc3Cl)CC2)cc1	/	/	/	/	1.4	5	4.6	-5	0.69
Cc1ccc(O)c(N=Cc2cccs2)c1	/	/	/	/	0.2	-6	1.7	/	0.71
CCCOP(=O)(OCCC)c1c([N+](=O)[O-])cc(C(F)(F)F)cc1[N+](=O)[O-]	/	/	/	/	-0.6	-12	1.6	-19	0.75
CCN(CC)C(=O)COCc1cc(-c2ccc3c(c2)OCO3)on1	-3	7	2.2	i	-0.5	16	1.1	1	0.68
COc1ccc2ccccc2c1CN1CCCC(CO)C1 (stereo unspecified)	/	/	/	/	2.9	17	4.6	-15	0.7
O=C1CCN(Cc2ccccc2)S(=O)(=O)c2ccc(C(F)(F)F)cc21	-23	-24	-8.7	i	-1.5	-6	-1.7	0	0.64
O=C(Nc1ccccc1N1CCN(C(=O)c2ccccc2)CC1)c1ccc([N+](=O)[O-])o1	-25*	-13*	-0.9*	i	3.8	9	4.1	/	0.66
O=[N+]([O-])c1ccc(NC(=S)N2CCCC2)cc1	2	12	-3.4	i	-0.5	-4	10	-2	0.64

Single records (already shown).
`CCN(CC)C(=O)COCc1cc(-c2ccc3c(c2)OCO3)on1` as listed: rRNA inh HTS: -3; rRNA inh HTS OD600: 7; rRNA inh HTS RFP: 2.2; FGF22 binding: i; HNF4A DNA FP: -0.5; Beta2AR agonist: 16; UCH37 DUB inh: 1.1; ALR H2O2 inh: 1; E coli growth: 0.68
`Cc1ccc(O)c(N=Cc2cccs2)c1` as listed: rRNA inh HTS: /; rRNA inh HTS OD600: /; rRNA inh HTS RFP: /; FGF22 binding: /; HNF4A DNA FP: 0.2; Beta2AR agonist: -6; UCH37 DUB inh: 1.7; ALR H2O2 inh: /; E coli growth: 0.71

Going on with the list.
SMILES	rRNA inh HTS	rRNA inh HTS OD600	rRNA inh HTS RFP	FGF22 binding	HNF4A DNA FP	Beta2AR agonist	UCH37 DUB inh	ALR H2O2 inh	E coli growth
CCCN(c1ccccc1C(=O)O)S(=O)(=O)c1ccc2c(c1)n(C)c(=O)n2C	3	11	-0.1	i	-0.7	-3	-0.8	-7	0.68
Cc1cccc2c(CCNC(=O)c3ccc([N+](=O)[O-])cc3)c[nH]c12	/	/	/	i	2.7	2	/	-14	/
Cc1c(C)c2ccc(OC(C)C(=O)NCc3ccccn3)cc2oc1=O (stereo unspecified)	11	7	2.2	i	0.8	-3	-131	-2	0.68
Cn1c(SCC(=O)NC(c2ccccc2)c2ccccc2)nnc1-c1cccs1	/	/	/	/	-1.1	-44	0.4	0	0.72
O=C(O)C1C2C=CC(C2)C1C(=O)OCc1ccccc1 (stereo unspecified)	/	/	/	/	1.0	-1	/	-5	/
COc1ccc([N+](=O)[O-])cc1NC(=S)NC(C)=O	13	18	3.2	i	-3.8	-13	3.3	-2	0.67
C=CCn1c(C)cc(C2=NNC(=NCC)SC2)c1C	10	11	1.9	i	0.7	-3	9.5	?	0.65
COc1cc(/C=C2/C(=O)CNC2=O)ccc1O	/	/	/	/	3.4	8	/	99*	/
COc1ccccc1N(C(=O)Cn1nnc(-c2ccc(C)o2)n1)C(C(=O)NC1CCCC1)c1ccncc1 (stereo unspecified)	10	9	-0.4	i	-2.5	5	2.5	-2	0.67
CC(C)NS(=O)(=O)c1ccc(NC(=O)CCc2ccccc2)cc1	0	1	-4.7	i	-0.1	2	3.2	66	0.72
NS(=O)(=O)c1ccc(CCNS(=O)(=O)c2ccc(Cl)nc2)cc1	6	-7	-4.3	i	3.5	1	1.3	-7	0.71
COc1ccc(N2CCN(C(=O)c3cc(=O)c4cc(C)c(C)cc4o3)CC2)cc1	1	11	-1.8	i	-2.2	2	1.7	-4	0.69
COc1ccc(N=c2ssnc2Cl)cc1	/	/	/	/	-1.8	12	6.4	20	0.7
CSc1ccccc1C(=O)NCC1CCCO1 (stereo unspecified)	/	/	/	/	2.6	0	-1.9	-3	0.74
C=CCOc1c(Br)cc(CNn2nnnc2N)cc1OC	/	/	/	/	-0.6	1	-0.8	1	0.72
O=C1c2oc3ccccc3c(=O)c2C(c2cccc(O)c2)N1CCCN1CCOCC1 (stereo unspecified)	9	16	1.7	i	-1.6	-10	2.2	-2	0.74
Cc1cc(Cl)c(S(N)(=O)=O)cc1OCC(=O)NC1CCCCC1	1	8	2.7	i	3.1	2	-1.2	1	0.64
Cc1ccc(OC(C)c2nnc(N)s2)cc1Cl (stereo unspecified)	/	/	/	/	-4.5	6	2.9	-6	0.73
Cc1cccc(NC(=O)NCCc2c[nH]c3ccccc23)c1	/	/	/	/	-4.2	3	1.8	/	0.69
CCCNc1nc(C)c(C(C)=O)cc1C#N	/	/	/	/	3.4	1	2.9	10	0.74
Cc1nccn1-c1ncnc2sc3c(c12)CCCC3	/	/	/	/	0.1	-4	0.5	-7	0.7
CC1(C(=O)O)CCC(C(=O)NC2CCCCCC2)C1(C)C (stereo unspecified)	/	/	/	/	-2.0	4	2.5	/	0.7
N=c1ncn(Cc2ccccc2)c2nc(SCCOc3ccccc3)[nH]c12	2	9	-0.3	i	-2.8	-2	2.3	-1	0.72
CN(CC(=O)Nc1ccc(F)c(F)c1F)C(=O)C1=COCCO1	20	13	4.4	i	4.3	-10	0.1	-13	0.7
NS(=O)(=O)c1cccc(NC(=S)NC(=O)C23CC4CC(CC(C4)C2)C3)c1	/	/	/	/	-1.6	8	1.7	7	0.7
CC(C)C(c1nnnn1CCc1ccccc1)N1CCN(C(=O)c2ccco2)CC1 (stereo unspecified)	/	/	/	/	-1.1	-3	1.6	/	0.7
CCN(C(=O)COC(=O)c1nc(Cl)ccc1Cl)c1c(N)n(Cc2ccccc2)c(=O)[nH]c1=O	0	7	-1.6	i	-2.6	-6	-2.7	/	0.68
COc1ccc(C(=O)C(OC(=O)c2ccccc2Cl)c2ccccc2)cc1 (stereo unspecified)	/	/	/	/	-2.3	10	-0.1	32	0.73
Cc1[nH]n(-c2cccc(Cl)c2)c(=O)c1C=NCC(C)C	-21*	-8.2*	-2.7*	i	0.1	-11	1.5	-11	0.71
CCOC(=O)NC(=O)CSc1nc(C)cc(C(F)(F)F)c1C#N	/	/	/	/	9.3	-249	-0.7	0	0.69
COC(=O)c1cc(S(=O)(=O)N(C)c2ccc(C)c(C)c2)c[nH]1	-4	-8	3.9	i	-1.1	-80	5.4	-10	0.7
Cc1c(C#N)c2ccccc2n1CC(=O)NCC1CCCO1 (stereo unspecified)	4	-4	-1.3	i	4.7	6	1.2	-6	0.69
COc1ccc(NC(=S)NC(=O)/C=C/c2cccs2)cc1	4	5	2.0	/	1.9	-4	1.5	3	0.73
c1ccc2oc(-c3nn4c(Cn5cnc6ccccc65)nnc4s3)cc2c1	7	1	-6.5	i	-4.1	-2	-31	-4	0.73
O=c1[nH]c2ccccc2c(=O)c2ccccc12	9	6	-1.7	i	-1.5	/	/	/	/
CC(=O)c1c(C)nn(C(=O)c2cccs2)c1C	4	10	-3.9	i	-0.1	-1	4.0	-22	0.74
Cc1c(N/C=C(\Cl)C(=O)C(F)(F)F)c(=O)n(-c2ccccc2)n1C	/	/	/	i	-1.2	-5	10	11	0.69
CCCNC(=O)CSc1nnc(NC(=O)C2CC(=O)N(c3ccccc3OC)C2)s1 (stereo unspecified)	0	14	0.8	i	-0.6	/	/	/	/
COc1ccccc1NC(=O)CC(=O)c1ccccc1	9	0	-5.5	i	2.5	0	2.8	2	0.67
CC(C)(C)OC(=O)C[C@H]1C/C=C\C[C@H](CC(=O)N(CCO)Cc2ccccc2)C(=O)N[C@@H](Cc2ccccc2)COC1=O	0	-4	3.8	i	-0.7	-1	1.5	0	/
O=c1cc(NS(=O)(=O)c2ccccc2)nc(SCc2c(Cl)cccc2Cl)[nH]1	-14	-7	-2.0	i	2.2	14	2.6	16	0.62
O=S(=O)(c1ccc2ccccc2c1)N1CCN(C(=S)Nc2ccc(F)c(Cl)c2)CC1	/	/	/	/	-0.7	-7	2.5	-2	0.71
Cc1cc(C(=O)Nc2ccc(S(=O)(=O)Nc3onc(C)c3C)cc2)c(C)o1	/	/	/	/	0.8	-4	6.0	84*	0.7
COC(=O)c1c(NC(=O)CN2CCN(c3ccccc3)CC2)c2c(C)cccc2n1C	/	/	/	/	2.3	8	-0.7	21	0.69
Cn1c(SCC#N)nc2ccccc2c1=O	3	-3	-1.0	i	0.3	-5	1.0	-1	0.71
Cc1ccc(-n2c(=O)[nH]c3c(C(N)=O)nc(-c4ccc(C)o4)nc32)cc1	/	/	/	/	-0.1	1	-6.3	66	0.71
COc1ccc(-c2nc(SC(C)C(=O)Nc3ccc(NC(C)=O)cc3)n[nH]2)cc1 (stereo unspecified)	-8	-14	4.7	i	1.9	3	-0.7	98*	0.68
COc1ccccc1-c1cnc(C(O)c2ccc(F)c(C)c2)[nH]1 (stereo unspecified)	-35	-57	-4.7	i	1.8	/	/	/	/
CCOC(=O)c1nnn(-c2nc(N(C)C)nc(N(C)C)n2)c1C	13	9	1.6	i	2.3	0	8.9	-4	0.72
COc1cccc(NC(=O)c2ccncc2)c1	/	/	/	/	0.0	-2	0.3	-5	0.72

New compounds follow:
SMILES	rRNA inh HTS	rRNA inh HTS OD600	rRNA inh HTS RFP	FGF22 binding	HNF4A DNA FP	Beta2AR agonist	UCH37 DUB inh	ALR H2O2 inh	E coli growth
CCc1cc(Cn2nc(C(=O)O)cc2-c2ccccc2)on1	4	5	-4.8	i	0.4	-5	22*	/	0.68
CCOc1cccc(C2C(C#N)=C(N)Oc3cc(C)n(Cc4ccccn4)c(=O)c32)c1OCC (stereo unspecified)	/	/	/	/	2.7	5	-2.8	-15	0.83
CCCC(=O)Nc1cc(C)c(NC(=O)c2ccco2)cn1	6	9	0.6	i	-3.8	-1	4.2	4	0.66
COCCNC(=O)c1c[nH]c2cc(OC)c(OC)cc2c1=O	/	/	/	/	2.5	1	1.8	-1	0.68
Cc1cccc(C)c1NC(=O)CSc1nnc(-c2cnccn2)n1C	3	9	-1.6	i	-0.4	-2	0.5	-16	0.68
C=CCNC(=O)C1CC2c3ccccc3C1c1ccccc12 (stereo unspecified)	7	-6	-1.6	i	0.3	-6	4.8	-8	0.66
CCN(CC)c1ccc(N=Nc2nn(C)c(C)c2[N+](=O)[O-])cc1	/	/	/	i	3.0	-8	8.2	15	0.68
CCN1CCc2nc3ccccc3c(C(=O)Nc3ccc(C#N)cc3)c2C1	4	-1	11	i	1.4	9	-0.7	/	0.65
COc1ccc([C@@H]2C=C(C(=O)O)O[C@H](OCCCCO)C2)cc1	15	17	2.2	i	-3.9	19	-0.6	0	/
CNc1cncc(-c2cccc(C(=O)NCCN(C)C)c2)n1	30	29	4.9	i	2.8	/	/	/	/
Nn1cnnc1N/N=C/c1cc(Br)cc(Br)c1O	/	/	/	/	6.3	1	/	13	/
COc1cc(OC)nc(Oc2cccc(Cl)c2C)n1	9	9	2.6	i	1.3	0	3.8	-15	0.67
Cc1cc(C)nc(SCCC(=O)N2CCOCC2)n1	/	/	/	/	3.3	-9	2.7	-6	0.76

Screens deposited in PubChem by several laboratories.
